Screening results (PubChem)
ALR inh – inhibitors of human ALR sulfhydryl oxidase, primary screen, biochemical, H2O2 detection, HRP-luminol luminescence, single point; AID 485317, 2010; 3.8% of 290,000 active; purified ALR, DTT oxidation; FAD-linked sulfhydryl oxidase ALR (Homo sapiens), P55789; inhibition, % (no concentration beside the values);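 active = mean and each replicate at 75% or more; inconclusive = only one of the two met; inactive = neither met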;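 note: stock transfer was 7.5 nL into about 7.5 µL; 0% = neutral wells and 100% = wells with inactivated enzyme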
Target sequence (P55789 whole entry, looked up): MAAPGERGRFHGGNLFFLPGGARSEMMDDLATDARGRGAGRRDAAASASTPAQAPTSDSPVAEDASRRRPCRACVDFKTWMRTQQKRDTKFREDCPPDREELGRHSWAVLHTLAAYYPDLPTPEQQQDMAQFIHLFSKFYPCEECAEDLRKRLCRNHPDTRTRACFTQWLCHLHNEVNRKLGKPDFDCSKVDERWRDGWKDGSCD
HNF4A DNA FP – change in binding of human HNF4A to DNA, primary screen, biochemical, fluorescence polarization, FITC-DNA; Hepatocyte nuclear factor 4-alpha (Homo sapiens), P41235; 1 h; activity change, % at 10 µM; 0.3% of 360,000 active; in the data active = activity change above about 30%, passing the limit was not always enough;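 note: controls were the assay level and a saturating level of protein; the project sought stronger binding though the title names inhibitors; some compounds called inactive have numbers as strong as hits; positive values seem to mean higher polarization but the record does not say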
Vif A3G – inhibitors of Vif binding to APOBEC3G peptide, primary screen, biochemical, TR-FRET, GST-Vif 1-94, biotin-A3G peptide, dose response retest (AID 1117319); TR-FRET GST-Vif / biotin-A3G peptide binding; higher % means a stronger effect; test concentration not given here; strong numbers were not always called active; inhibition, %; hits with a dose series show IC50 in µM; 0.57% of 260,000 active;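 active = above the screen mean plus three standard deviations and confirmed in dose response; inconclusive = results disagree or hit not tested in dose response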;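 note: Vif residues 1-94 fused to GST binding biotinylated APOBEC3G peptide 110-148; 0% = full assay without inhibitor and 100% = GST in place of GST-Vif; retest series ran down from 100 µM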
rRNA inh HTS – reduced GFP signal of wild-type E. coli, primary screen, bacterial rRNA inhibitor project, GFP/RFP fluorescence, OD600, single point | AID 720706, 2013 | GFP signal change (wild-type ribosome), % (no concentration beside the values) | 1.6% of 350,000 active | E. coli WT GFP vs humanized-ribosome RFP mutants, 24 h; hits give low values; DMSO median 0, no signal -100;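 active = significant combined selectivity score with lowered wild-type GFP, culture density cut under 30%, mutant RFP and density less affected; inactive = any of these conditions unmet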; note: one replicate is shown; some compounds called inactive have numbers as strong as hits
FGF22 binding – binders of human FGF22 protein, primary screen, FGF22 synaptogenesis inhibitor project, biophysical, thermal shift, single point; recombinant FGF22 thermal shift, SYPRO orange fluorescence; percent of sucrose octasulfate shift, DMSO zero; calls only at 9.99 µM; 1.5% of 340,000 active; AID 651658, 2012;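 active = melting point raised past a set limit in the mean and every replicate; inconclusive = no clear call; three in four hits are not shown here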
Target sequence (Q9HCT0 whole entry, looked up): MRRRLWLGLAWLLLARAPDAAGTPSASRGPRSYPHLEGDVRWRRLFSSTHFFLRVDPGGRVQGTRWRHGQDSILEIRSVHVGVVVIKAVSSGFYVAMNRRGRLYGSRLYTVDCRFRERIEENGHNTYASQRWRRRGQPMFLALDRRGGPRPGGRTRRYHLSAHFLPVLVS
Ecoli growth – E. coli growth inhibition, primary screen, OD600; Escherichia coli growth, 23 h; hits give low values; OD600 absorbance (test concentration not listed); 0.21% of 330,000 active;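 active = OD600 absorbance below the run mean of sample wells minus 3.6 SD, in any replicate, cut at about 0.56 in these data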;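 note: stock transfer was 300 nL into about 60 µL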
MLL AF4-AF9 inh – inhibitors of AF4 peptide binding to AF9, primary screen, biochemical, AlphaScreen, biotin-AF4 peptide, FLAG-AF9, single point; Protein AF-9 (Homo sapiens), P42568; inhibition, % at 10 µM; 0.47% of 350,000 active;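 active = every replicate reaching a set inhibition limit, whatever the replicate mean, cut at about 25% in these data; inconclusive = mean inhibition reaches that limit but some replicates miss it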;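 note: 0% = plate neutral control median and 100% = total signal loss; the record names both 10 and 1 µM as test concentration; the first replicate is given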
Target sequence (P42568 whole entry, looked up): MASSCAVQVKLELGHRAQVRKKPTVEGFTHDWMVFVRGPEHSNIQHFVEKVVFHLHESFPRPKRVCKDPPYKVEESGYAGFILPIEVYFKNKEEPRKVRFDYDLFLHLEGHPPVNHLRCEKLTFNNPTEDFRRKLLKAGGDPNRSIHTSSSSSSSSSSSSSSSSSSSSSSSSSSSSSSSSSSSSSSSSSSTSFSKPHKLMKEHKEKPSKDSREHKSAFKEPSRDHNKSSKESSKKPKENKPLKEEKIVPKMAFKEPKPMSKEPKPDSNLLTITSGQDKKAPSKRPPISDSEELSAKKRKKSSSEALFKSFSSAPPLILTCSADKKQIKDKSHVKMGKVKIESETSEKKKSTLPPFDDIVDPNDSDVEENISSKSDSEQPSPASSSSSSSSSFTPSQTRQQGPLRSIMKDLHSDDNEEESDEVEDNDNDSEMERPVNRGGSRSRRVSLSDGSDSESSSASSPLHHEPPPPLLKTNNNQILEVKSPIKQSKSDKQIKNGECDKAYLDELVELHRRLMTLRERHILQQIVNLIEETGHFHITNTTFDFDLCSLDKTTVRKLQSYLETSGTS
rRNA inh HTS OD600 – second read-out of rRNA inh HTS, no call of its own (marks repeat the call); OD600 change, %; measured here: OD600 growth;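 optical density of the mix in the first replicate; 0 = DMSO median and -100 = no signal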
rRNA inh HTS RFP – recorded beside rRNA inh HTS, whose call it bears; RFP signal change, %; measured here: RFP humanized mutant strains;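 first replicate; 0 = DMSO median and -100 = no signal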
An asterisk follows results filed as active; i = inactive; ? = inconclusive; · = no result given. A portion of the library; count on the stated rates, not on these rows.

SMILES	ALR inh	HNF4A DNA FP	Vif A3G	rRNA inh HTS	rRNA inh HTS OD600	rRNA inh HTS RFP	FGF22 binding	Ecoli growth	MLL AF4-AF9 inh
Cc1cc(-c2n[nH]c(=S)n2/N=C/c2ccco2)n[nH]1	-1	-0.2	8%	25	2	0.9	i	·	·
O=C(Cc1ccccc1)N[C@H]1CC[C@H](CC(=O)N2CCCCC2)O[C@@H]1CO	·	·	·	3	13	0.2	i	·	-0.3
CN(C)c1nc2ccccc2c(N)c1-c1ccccc1	-2	-2.0	1%	10	-1	-5.3	i	0.69	-2.7
CN(c1ccccc1C(=O)Nc1ccc2c(c1)n(C)c(=O)n2C)S(C)(=O)=O	-3	-1.2	·	8	8	-0.7	i	0.7	-5.9
Fc1cccc(Cc2c(-c3ccc(Cl)cc3)nc3ccc(Br)cn23)c1	·	7.8	·	·	·	·	i	·	0.8
O=C(OCc1ccccn1)C1CCN(C(=O)c2ccc(Cl)cc2)CC1	-2	-1.9	-2%	2	5	0.7	i	0.68	0.3
COc1cc2c(cc1OC)C(c1cccs1)NCC2 (stereo not drawn)	·	-3.7	-5%	·	·	·	·	0.72	·
COC(=O)c1cc(NC(=O)Cc2cc(OC)c(OC)c(OC)c2)cc(C(=O)OC)c1	-1	4.0	-1%	-7	-3	0.9	i	0.72	0.4
CN(C)C=NC(=O)/C(C#N)=C/c1ccccc1	-17	0.6	·	4	0	0.3	i	0.67	-4.4
CC(C)NC(=O)N(C)C[C@H]1Oc2ccc(NC(=O)Nc3cccc4ccccc34)cc2CC(=O)N([C@@H](C)CO)C[C@H]1C	·	·	·	1	-4	-1.2	i	·	1.6
Cc1ccc(C(=O)NCC(=O)N/N=C/c2cccs2)cc1C	-9	8.9	-5%	·	·	·	·	·	-1.1
Cc1cc(NC(=O)CSc2nc3ccccc3c(=O)n2C2CCCC2)no1	-16	-2.6	3%	·	·	·	·	0.74	·
CCCC(=O)N1CCC2(CC1)CN(C(=O)C1CCCCC1)[C@H](CO)c1[nH]c3cc(OC)ccc3c12	·	·	·	1	-1	-0.5	i	·	-0.8
COc1ccc(-n2nc(C(=O)NCC(=O)Nc3ccccn3)c3ccccc3c2=O)cc1	·	-1.4	?	·	·	·	·	0.76	·
CCCC(=O)N1CCC2(CC1)CN(C(=O)Nc1c(C)noc1C)[C@@H](CO)c1c2c2ccc(OC)cc2n1C	·	·	·	-4	-2	3.0	i	·	0.6
NC(=O)CSC1=N/C(=C\c2ccco2)C(=O)N1c1ccc(OC(F)F)cc1	-16	6.6	?	5	-3	1.0	i	0.64	1.0
CC1(C)Cc2c(c(N3CCCC3)nc3sc4c(N5CCN(CCO)CC5)ncnc4c23)CO1	0	7.4	22%	-21	14	15	i	0.64	2.1
COc1ccccc1OCC(=O)NC1CCCCCC1	16	-1.8	9%	-8	6	-7.3	i	0.69	5.3
CN1CCN(S(=O)(=O)CC2(C)C3CCC2(C)C(=O)C3Br)CC1 (stereo not drawn)	5	0.4	20%	4	-4	-2.3	i	0.67	8.1
CCOc1ccc(NC(=O)CN(C)C(=O)c2ccc(N3CCCC3)c([N+](=O)[O-])c2)cc1OCC	15	-0.3	5%	-31	-34	-5.6	i	0.61	11
O=C1c2ccccc2CN2C(=O)c3ccccc3CN12	-4	0.5	·	2	2	-0.9	i	0.67	-3.5
COC(=O)CCSc1cc([N+](=O)[O-])cc2c1c(C1OCCO1)nn2-c1ccccc1	-1	0.7	3%	·	·	·	·	0.63	·
O=C(CSc1n[nH]c(-c2ccccc2)n1)Nc1ccc(F)cc1F	7	0.3	·	-9	-11	1.2	i	0.71	-2.1
COc1cccc(C(C(=O)NC(C)(C)C)N(C(=O)CCC(=O)Nc2cc(C)on2)C(C)(C)C)c1OC (stereo not drawn)	1	-1.2	9%	·	·	·	·	0.7	·
CNc1nc(SC(C)C(=O)Nc2ccc(Cl)c(Cl)c2)nc(N2CCOCC2)n1 (stereo not drawn)	-1	3.5	-7%	-14	-10	3.4	·	0.75	-1.7
N/C(=N\OC(=O)c1cccc(Br)c1)c1ccc([N+](=O)[O-])cc1	-7	4.9	·	5	12	4.5	i	·	-0.1
CCNC(=S)NNC(=O)c1ccc(OC(F)F)cc1	37	-1.1	26%	·	·	·	·	0.69	·
O=C1C=C(c2ccc(-c3ccccc3)cc2)C[C@@H](c2ccc(Cl)cc2)C1	-1	1.8	·	8	4	-0.1	i	·	-0.9
O=C(N[C@@H]1CC[C@@H](CCNS(=O)(=O)c2ccccc2)O[C@@H]1CO)c1cnccn1	·	·	·	1	-2	-0.6	i	·	-0.3
CCCN1C(=O)c2cc(C(=O)NCCc3cccc(C)c3)ccc2C1O (stereo not drawn)	-18	3.3	-1%	-2	-4	3.0	i	0.74	-0.8
Cc1cc(Cc2cc(C)c(O)c(CO)c2)cc(CO)c1O	·	0.5	5%	1	-15	5.3	i	0.67	-0.8
CCCc1c(C(=O)N/N=C/c2ccccc2OCc2ccc(F)cc2)nnn1-c1nonc1N	1	-0.6	·	7	20	1.0	i	·	2.1
CCC(C)(C)n1nnnc1CN1CCN(c2nc3cc(OC)ccc3cc2C#N)CC1	-3	0.9	-8%	·	·	·	·	0.7	·
COc1cc(C(=O)Nc2nc3ccc(S(C)(=O)=O)cc3s2)cc(OC)c1C	1	-2.9	-6%	2	-2	0.1	i	0.67	8.8
Cc1ccc(CS(=O)(=O)Cc2ccc(C(=O)NCCCN3CCOCC3)o2)cc1	3	-0.9	5%	26	3	1.1	i	0.67	5.4
CC(=O)Cc1nsc(NC(=O)c2csc3c2CCCC3)n1	·	2.6	1%	·	·	·	·	0.67	·
Cc1ccc(NC(=O)COc2ccccc2C(=O)Nc2ccccc2)cc1Cl	-3	5.1	69%	·	·	·	·	0.72	·
CCN(CC(=O)Nc1ccc(NC(C)=O)cc1)C(=O)c1cc2c(s1)CCCC2	12	-3.3	6%	-4	-2	0.7	i	0.68	-9.8
COc1ccc(N2CC(C(=O)Nc3ccccc3C(=O)NCc3ccco3)CC2=O)cc1 (stereo not drawn)	·	0.1	0%	·	·	·	·	0.71	·
COCCn1c(C)cc(/C=C2/SC(=O)N(CC(=O)N3CCCC3)C2=O)c1C	15	-2.1	-1%	5	-8	0.4	i	0.69	2.8
CCc1nnc(NC(=O)C(=O)NCCOC(=O)c2ccccc2)s1	2	-0.4	2%	6	3	-3.1	i	0.69	9.4
COc1ccc2[nH]c3c(c2c1)CCN1C(=O)C(CC(=O)NCC24CC5CC(CC(C5)C2)C4)C[C@H](C(=O)N2CCOCC2)[C@@]31CCC1CCCC1 (stereo partly drawn)	·	1.2	·	0	34	-3.0	i	0.72	0.8
Cc1nn(C)cc1S(=O)(=O)N1CCN(c2ccccc2)CC1	38	-1.2	21%	5	7	0.9	i	0.69	-0.4
CCN(CC)C1CCS(=O)(=O)C1 (stereo not drawn)	-10	2.2	·	5	3	0.5	i	0.67	-0.6
COc1cc(C)ccc1Oc1ncnc(N)c1[N+](=O)[O-]	3	-1.8	-2%	10	4	1.7	i	0.7	-0.1
CC(C)C#Cc1cnc2c(c1)C(=O)N([C@H](C)CO)C[C@H](C)[C@@H](CN(C)Cc1ccccc1)O2	·	·	·	6	1	-1.3	i	·	2.3
CCN(C(=O)Nc1cccc2ccccc12)c1ccccc1	·	-1.1	7%	2	2	-4.8	i	·	3.8
C[C@@H]1ON(C2CCCCC2)[C@H]2c3nc4ccccc4n3C[C@@H]12	·	0.2	·	0	0	-0.8	i	·	-0.2
Cc1ccc(Sc2nc(C)c([N+](=O)[O-])c(C)c2C#N)cc1	·	-2.2	-1%	-13	1	1.8	i	0.68	-1.7
Cc1ccccc1S(=O)(=O)N1CC(C(=O)O)=CC[C@H]1c1ccc(Cl)cc1	4	-1.5	·	-16	-5	-0.6	i	·	1.8
Cc1ccc(S(=O)(=O)Cn2nnnc2C(CC(C)C)N2CCN(c3ccccc3)CC2)cc1 (stereo not drawn)	-5	-1.4	-7%	·	·	·	·	0.74	·
CC1CN(S(=O)(=O)c2ccccc2)CN1C(=O)N1CCOCC1 (stereo not drawn)	-2	0.2	·	6	6	-1.9	i	0.66	6.5
COc1cccc(NC(=O)N(C)C[C@H]2Oc3cc(-c4ccccc4F)ccc3S(=O)(=O)N([C@@H](C)CO)C[C@@H]2C)c1	·	·	·	1	-12	3.0	i	·	1.6
O=C(CSc1nnc(-c2ccccc2)o1)N1CCCCC1	-1	1.9	·	-1	4	1.5	i	0.7	1.1
N#CCCN(CCC#N)C(=O)C1c2ccccc2Oc2ccccc21	-2	-83	·	69	16	32	i	·	-1.6
C[C@H](CO)N1C[C@H](C)[C@H](CN(C)S(=O)(=O)c2ccccc2F)Oc2cc(C#Cc3cccc(F)c3)ccc2S1(=O)=O	·	·	·	8	10	1.3	i	·	-1.9
CN(Cc1cc(Cl)cc(Cl)c1O)Cc1c(O)ccc2ccccc12	·	-0.1	3%	-55	-80	-19	i	0.66	14
CC1(C)Cc2noc(N)c2C(C)(C)N1OC(=O)c1cccs1	-2	-4.2	-3%	·	·	·	·	0.7	·
COC(=O)c1ccc(NC(=O)CSc2nnc(-c3ccncc3)n2N)cc1	-6	-0.5	2%	·	·	·	·	0.67	·
Cn1cc(CNCCN2CCCCC2=O)c(-c2cccc(Cl)c2)n1	3	-2.2	9%	10	5	1.5	i	0.66	-0.3

Some of the entries above in another layout:
> CC1CN(S(=O)(=O)c2ccccc2)CN1C(=O)N1CCOCC1 (stereo not drawn)
  ALR inh = -2 | HNF4A DNA FP = 0.2 | Vif A3G = · | rRNA inh HTS = 6 | rRNA inh HTS OD600 = 6 | rRNA inh HTS RFP = -1.9 | FGF22 binding = i | Ecoli growth = 0.66 | MLL AF4-AF9 inh = 6.5
> C[C@@H]1ON(C2CCCCC2)[C@H]2c3nc4ccccc4n3C[C@@H]12
  ALR inh = · | HNF4A DNA FP = 0.2 | Vif A3G = · | rRNA inh HTS = 0 | rRNA inh HTS OD600 = 0 | rRNA inh HTS RFP = -0.8 | FGF22 binding = i | Ecoli growth = · | MLL AF4-AF9 inh = -0.2

Later entries.
SMILES	ALR inh	HNF4A DNA FP	Vif A3G	rRNA inh HTS	rRNA inh HTS OD600	rRNA inh HTS RFP	FGF22 binding	Ecoli growth	MLL AF4-AF9 inh
COc1ccc(Cc2nc3ccc(C(=O)NCCc4ccccn4)cc3o2)cc1OC	10	0.9	3%	0	1	0.2	i	0.69	-1.6
CCOC(=O)Nc1ccc2c(COC(=O)c3ccccc3O)cc(=O)oc2c1	0	4.6	-2%	11	9	3.2	i	0.67	1.1
C=CCn1c(=S)[nH]c2scc(-c3ccc(C)o3)c2c1=O	98*	1.2	·	-26	-26	-6.4	i	0.7	-1.3
CCCC(=O)NCC(c1cccs1)S(=O)(=O)c1ccc(Cl)cc1 (stereo not drawn)	0	0.8	9%	4	2	0.6	i	0.67	-0.8
COc1ccc(NC(=O)Nc2ccc3c(c2)[C@H]2C[C@H](CC(=O)N(C)C)O[C@H](CO)[C@H]2O3)cc1	·	·	·	-1	9	0.6	i	·	0.4
Cc1ccc(S(=O)(=O)N[C@@H]2CC[C@H](CC(=O)NCCN3CCCCC3)O[C@H]2CO)cc1	·	·	·	2	3	0.0	i	·	-0.8
COc1ccc(NC(=O)Nc2cccc3c2O[C@@H](CN(C)S(=O)(=O)c2cccs2)[C@@H](C)CN([C@H](C)CO)C3=O)cc1	·	·	·	-3	-10	1.3	i	·	-0.9
COc1ccc(S(=O)(=O)N2CCC3(CC2)OCCN3S(=O)(=O)c2cccs2)cc1OC	-4	-2.9	0%	0	-4	-0.6	·	0.7	3.6
